From PubChem
nsP2pro inh = inhibitors of chikungunya virus nsP2 protease | FRET peptide cleavage, nsP2pro, fluorescence 1 h | Potency, µM (highest dose often 24.9 µM), without a hit: at the top dose activity change, negative = inhibition, actives largely listed as inhibitors | hit rate 1.1% among 31,000; active means well fitted inhibition curve with a large enough effect; inconclusive means small, poorly fitted or top-dose-only effect; inactive means no such curve, though single readings can be large or run the other way; also: nearly all actives have a fitted effect of over 60% in size; a reference inhibitor and vehicle were the controls
An asterisk follows results filed as active; i = inactive; ? = inconclusive; & = joins results of further samples; [ ] = another dose, or the depositor's remark. % is scaled to controls: 0 for no effect and ±100 for the full control effect; potency is read from the fitted curve at half-maximal effect.

structure,nsP2pro inh
Cn1nnnc1Sc1ncnc2scc(-c3cccc(N)c3)c12,1.8µM*
C/C=C/C=C/C=C/C(=O)O[C@@H]1[C@@H](OC)C2=C(C(=O)N(C(C)C(=O)O)C2)[C@@]2(C)CCCC(C)(C)[C@H]12 (some centres not stated),68%[activator][10 µM]
C=C1[C@@H]2CC[C@@H]3[C@@](CCC4C(C(=O)O)(C(=O)O)C[C@@H](O[C@@H]5O[C@H](CO)[C@@H](O)[C@H](O)[C@H]5OC(=O)CC(C)C)C[C@]43C)(C2)[C@H]1O (some centres not stated),0%[10 µM]
COc1cc(C)[nH]c(=O)c1CNC(=O)c1c(C)n([C@H](C)C2CCOCC2)c2ccccc12,-5%
CCOc1ccc(-c2cc3c(=O)n(Cc4nc(-c5ccc(OC(C)C)cc5)oc4C)ccn3n2)cc1Cl,-18%
Clc1ccccc1C1(c2ccnc(C3CC3)n2)CCNCC1,2%
CCc1ccccc1NC(=O)CN(c1ccc(OC)cc1)S(=O)(=O)c1c(C)n[nH]c1C,-10%
Cn1cnc2c(ncn2[C@@H]2O[C@H](CO)[C@@H](O)[C@H]2O)c1=N,-27%
Cc1cccc(CC(=O)N2CC(=O)Nc3ccc(C)cc3C2c2ccc(F)cc2)c1 (configuration not stated),-20%
CCc1nn2c(=O)cc(COC(=O)c3ccc(NC(=O)COc4ccc(C)cc4)cc3)nc2s1,-9%
CO[C@H]1CN(C2CCN(C(=O)C3CCN(C(C)=O)CC3)CC2)[C@H]1c1ccncc1,?
N=c1c2c(ccn1CCCc1ccccc1)Oc1ccc3ccccc3c1C2c1ccccc1 (configuration not stated),-4%
CCNC(=O)[C@@H]1C[C@H](NC(=O)c2ccc[nH]2)CN1C(=O)Cc1cc(C)no1,0%
CCCNC(=O)OC[C@H]1C[C@@H]2CCN1C[C@@H]2c1cc(-c2cccs2)nc(C)n1,?
CCCn1c(C)nc2c(NCCCN(C)C)nc(C)nc21,-7%
C=CC[C@@H]1CC=C[C@@H](C)N1C(=O)c1cc(OC)ccc1OC1CCN(C(=O)C2CC2)CC1,3%
O=C(NC1CCCCC1)N1CCC(Cc2nc(-c3ccccc3)n[nH]2)C1 (configuration not stated),-17%
CC(C)NCC1(COc2ccccc2)C[C@@H](O)[C@@H](O)C1 (some centres not stated),-7%[39.2 µM]
Cn1cc(-c2ccsc2)c2nc(CN3CCNC(=O)C3)cn2c1=O,4%[39.2 µM]
CCN(C(=O)c1cn(-c2cccc(OC)c2)c(=O)c2ccccc12)c1ccccc1C,-15%
O=S(=O)(c1ccccc1)c1nc(-c2ccc(F)cc2)oc1NCc1ccccc1,17%
COc1ccc(Nc2cnc3ccc(-c4ccc(F)cc4)nn23)cn1,?
O=C(O)c1ccc(CN2CCC(CN[C@@H]3C[C@H]3c3ccccc3)CC2)cc1,-1%
Cc1cc(C)nc(NC(=S)N2CCN(c3cccc4nccn34)CC2)c1,4%
COc1ccccc1N1CCN(C(=O)c2sc3nc4n(c(=O)c3c2C)CCC4)CC1,-8%
CC(C)CNc1cc(NC2CCCCC2)c2c3c(onc13)-c1ccccc1C2=O,-17%
CCc1ccc(C2CC(=O)Nc3cc4c(cc32)OCO4)cc1 (configuration not stated),-11%
Cc1cc(C)nc(NCc2ccc(O)c3ncccc23)c1,?
C=C(C)[C@@]12O[C@@H]1[C@@]1(C)C(=CC2=O)CC[C@@H](OC(C)=O)[C@@H]1C,-8%
CC(=O)OC[C@]12[C@H](OC(C)=O)[C@H](OC(=O)c3ccccc3)[C@@H]3[C@@H](OC(C)=O)[C@]1(OC3(C)C)[C@H](C)C[C@H](OC(=O)c1ccccc1)[C@@H]2OC(=O)c1ccccc1,-16%[10 µM]

Some of the entries so far, as labelled records.
CCc1ccc(C2CC(=O)Nc3cc4c(cc32)OCO4)cc1 (configuration not stated)
  nsP2pro inh: -11%
Cc1cc(C)nc(NCc2ccc(O)c3ncccc23)c1
  nsP2pro inh: ?
C=C(C)[C@@]12O[C@@H]1[C@@]1(C)C(=CC2=O)CC[C@@H](OC(C)=O)[C@@H]1C
  nsP2pro inh: -8%
CC(=O)OC[C@]12[C@H](OC(C)=O)[C@H](OC(=O)c3ccccc3)[C@@H]3[C@@H](OC(C)=O)[C@]1(OC3(C)C)[C@H](C)C[C@H](OC(=O)c1ccccc1)[C@@H]2OC(=O)c1ccccc1
  nsP2pro inh: -16%[10 µM]

Going on with the list:
structure,nsP2pro inh
CC(C)CNc1ccnc(NCc2csc(-c3ccccc3)n2)n1,75%[activator]
Cc1ccc(NC(=O)CN2C(=O)N/C(=C\c3cccn3-c3ccc(C(=O)NC#N)cc3)C2=O)cc1,i
CCN(c1ccccc1)S(=O)(=O)c1ccc(NC(=O)c2nc(SC(C)C)ncc2Cl)cc1,-9%
CCC1NC(=O)C2C(Cl)C(Cl)CN2C(=O)C(CC)NC(=O)CC(c2ccccc2)NC(=O)C(CO)NC1=O (configuration not stated),213%[activator][10 µM]
O=C(NCC1CC1)C1CCc2ncc(-c3ccc(F)cc3)n2C1 (configuration not stated),i
Cc1cnc(CC2CCCN(C(=O)N(C)C)C2)n1C(C)C (configuration not stated),-10%
COC(=O)CNC(=O)N1CCCC1c1nc(CCOCC2CC2)no1 (configuration not stated),0%
COC(=O)c1ccc(CSc2nc3c(c(=O)[nH]2)CCC3)cc1,-20%
CC(=O)N(CC(C)C(=O)O)c1c(I)cc(I)c(N)c1I (configuration not stated),-6%
COc1ccccc1Oc1ccc(N(Cc2cccnc2)S(=O)(=O)CC(F)(F)F)cc1,11µM*
CC(O)c1cc2n(n1)CCN(S(=O)(=O)c1ccc3c(c1)NC(=O)CO3)C2 (configuration not stated),2%
C[C@@H]1CC[C@@]2(OC1)O[C@H]1C[C@H]3[C@@H]4CC=C5C[C@@H](O)CC[C@]5(C)[C@H]4CC[C@]3(C)[C@H]1[C@@H]2C,2%[10 µM]
CC1=NOC(C(=O)N2CCCn3nc(C(=O)NCCN(C)C)cc3C2)C1 (configuration not stated),0%
CN(C)CCCNC(=O)c1ccc(-c2cc(O)c3ncccc3c2)cc1,1%
Nc1nc(Cl)nc2c1ncn2[C@@H]1O[C@H](CO)[C@@H](O)[C@@H]1F,-1%
CC(C)Oc1ccc(C(=O)N[C@H](CNC(=O)CN(C)C)Cc2ccc(-c3cn4cccc([C@H](C)O)c4n3)cc2)cc1Cl,54%[activator]
Cc1cc2ncc(C(=O)N3CCN(c4ncccn4)CC3)cn2n1,0%[39.2 µM]
O=C1C(N2CCN(Cc3ccc[nH]3)CC2)CCN1CCc1ccccc1 (configuration not stated),-24%
O=C(NCCc1ccc(Cl)cc1)c1ccc2nc(CCc3ccccc3)oc2c1,-12%
O=c1c(N2CCc3ccccc3C2)csc2ccc(F)cc12,?
CCc1ccc(-c2nc3c(c(SCc4ccc(F)cc4)n2)Cc2c(CO)cnc(C)c2O3)cc1,-6%
COC(=O)[C@H]1CCCN1C(=O)[C@@H]1C[C@H](NC(=O)NC(C)C)CN1C(=O)c1cccn1C,-6%[39.2 µM]
COc1ccccc1Cc1nc2ccccc2nc1SCC(=O)NCCc1ccccc1,-21%
CCc1ccc(-n2c(CCC(=O)O)ccc2-c2cccs2)cc1,-18%
CC(C)N1CCc2c(sc(NC(=O)C(F)F)c2-c2nc3ccccc3s2)C1,-27%
CCOC(=O)c1ccc2c(c1)c(C(C)=O)c(C)n2-c1ccc(OC)cc1,-2%
CCOc1ccc(CCNC(=O)c2cnc3sc(N4CCCCCC4)nn3c2=O)cc1,-4%
O=C1NC2(Cc3ccccc31)CN(C(=O)c1ccccc1)C2,-6%[39.2 µM]
CN1C(CC(=O)c2ccccc2)CCCC1CC(O)c1ccccc1 (configuration not stated),20%
CCCCN(C)C(=O)Cn1nc(-c2ccc(C(C)=O)cc2)ccc1=O,-6%
CC(C(=O)NCCc1ccccn1)C1CCOCC1 (configuration not stated),i
COc1ccnc(CN2C(=O)NC(CCc3ccccc3)(C3CCNCC3)C2=O)c1 (configuration not stated),i
CCC(CC)c1cc([C@H]2CN3CC[C@H]2C[C@@H]3CNS(C)(=O)=O)nc(-c2ccncc2)n1,-1%
CC(C)[C@H](N)C(=O)OCCOCn1cnc2c(=O)[nH]c(N)nc21,13%&-11%&0%
Cc1ccccc1OCC(=O)Nc1ccc2nc(SCC(=O)N(C)c3ccccc3)sc2c1,-20%
CC(Oc1ccccc1F)C(=O)N1CCC(c2nc3ccccc3o2)CC1 (configuration not stated),-12%
Cc1ccc(C)c(N2CCN(C3=C(c4ccccc4)C(=O)c4ccccc43)CC2)c1,-21%
COc1ccc(NC(=O)c2cnn3c(C)cc(C)nc23)cc1OC,-14%
OC[C@H]1O[C@@](CO)(O[C@H]2O[C@H](CO)[C@@H](O)[C@H](O)[C@H]2O)[C@@H](O)[C@@H]1O,-7%
COc1ccc(Cl)cc1C(=O)N1CC(F)(F)C[C@H]1c1nc(C)no1,i
COc1ccc2c(c1)c(CCN(C)C)cn2S(=O)(=O)c1ccccc1,28%
CN(Cc1ccccc1)C(=O)c1ccc2c(c1)N(Cc1ccccc1F)C(=O)c1ccccc1S2(=O)=O,-8%
Cc1c(N(C)C)c(=O)n(-c2ccccc2)n1C,-5%
CSCc1noc(CN2CCCC(CO)(CC=C(C)C)C2)n1 (configuration not stated),-4%
Cc1ccc(NC(=O)Nc2ccc3c(c2)N(C)C(=O)c2ccccc2S3)c(C)c1,-8%
O=C(O)c1cccc(-n2[nH]c(-c3ccccc3)cc2=O)c1,?
CN1CCN(C(=O)N2CCC3(CCCN(C4CCCC4)C3=O)C2)CC1 (configuration not stated),0%
COc1ccc(S(=O)(=O)Nc2cc(-c3cn4cccc(C)c4n3)ccc2C)cc1C,-17%
CC1CCc2c(sc3nnn(Cc4ccccc4Cl)c(=O)c23)C1 (configuration not stated),-12%
Cc1ccccc1NC(=O)C1CCN(S(=O)(=O)c2ccccc2)CC1,-15%
CCOc1ccc(S(=O)(=O)Nc2cccc(OC)c2)c2cccnc12,3%
Cc1cc(C)nc(NC(=S)N2CCN(c3cccc(C#N)c3)CC2)c1,-12%
Cc1ccc(S(=O)(=O)Nc2cccc3ccc(C)nc23)cc1,i
NC(=O)N1CCC(CC(=O)N2CCC(C3c4ncc(Br)cc4CCc4cc(Cl)cc(Br)c43)CC2)CC1 (configuration not stated),29%
COc1ccc2c(CNCC(C)c3ccccc3)c(C(=O)O)n(Cc3ccc(F)cc3Cl)c2c1 (configuration not stated),3%
CC(C)Nc1nc(C#N)nc(Nc2ccccc2)n1,-3%
CC1(C)CC[C@]2(C(=O)O)CC[C@]3(C)C(=CCC4[C@@]5(C)CC[C@H](O[C@@H]6O[C@H](C(=O)O)[C@@H](O)[C@H](O[C@@H]7O[C@H](CO)[C@H](O)[C@H](O)[C@H]7O)[C@H]6O[C@@H]6O[C@H](CO)[C@@H](O)[C@H](O)[C@H]6O)C(C)(C)C5CC[C@]43C)[C@@H]2C1 (some centres not stated),17%[2.68 µM]
CC(=O)O[C@@H]1C[C@@H](C)[C@](O)(CCC2=CC(=O)OC2)[C@@]2(C)CCCC(C)(C)C12 (some centres not stated),?
O=C(NCc1ccccc1Cl)c1nnc(Cc2ccc(Cl)cc2)o1,-14%
CC1CCC(=O)CC(SCC(O)C(=O)O)CCC(=O)O1 (configuration not stated),11µM*

(further entries)
structure,nsP2pro inh
CCCCC(=O)Nc1ccc2nc(SCC(=O)N3CCOCC3)sc2c1,-27%
CCOc1ccc(-c2csc(-c3c(N)c(C(=O)c4ccc5c(c4)OCO5)n4ccccc34)n2)cc1,-19%
C[C@@H]1O[C@@H](O[C@H]2[C@@H]3C=CO[C@@H](O[C@@H]4O[C@H](CO)[C@@H](O)[C@H](O)[C@H]4O)[C@@H]3[C@@]3(CO)O[C@@H]23)[C@H](O)[C@H](OC(=O)/C=C/c2ccc(O)cc2)[C@H]1OC(=O)/C=C/c1ccc(O)cc1,16%[10 µM]
COc1ccc(-c2nc3c(C)cccc3cc2CN2CCC(O)CC2)cc1OC,3%
Cc1oc(-c2ccc(C(=O)NCCC(C)C)cc2)nc1CN1CCc2ccccc21,-17%
CCCCCn1ncc2c3sc(C)cc3n(C)c2c1=O,-3%
CN(C)c1cccc(-c2cnc(N3CCC(C(N)=O)CC3)nc2)c1,i
CC1=C[C@H]2O[C@@H]3C[C@H]4OC(=O)/C=C/C=C/C(=O)OCC/C(C)=C/C(=O)OC[C@@]2(CC1)[C@]4(C)[C@]31CO1,-2%[10 µM]
CC(C)(CO)c1cc2cc(NC(=O)C3(c4ccc5c(c4)OC(F)(F)O5)CC3)c(F)cc2n1C[C@@H](O)CO,10%
CCN1CCN(C(=O)Cn2nc(C)c3sc(-c4ccccc4)nc3c2=O)CC1,i
Cc1ccc(C(C)C)c(OCc2ccc(C(=O)Nc3ccc(S(N)(=O)=O)cc3C)o2)c1,11%
NC(=O)C1CCN(c2ncc(-c3ccc4c(c3)OCCCO4)s2)CC1,3%
COc1cccc(CNC(=O)C(=O)NCC(c2ccco2)S(=O)(=O)c2cccs2)c1 (configuration not stated),-21%
O=C(N[C@H]1CN2CCC1CC2)c1ccc(Cl)cc1,-10%
Cc1ccc(OCCn2c(CCNC(=O)c3ccccc3C)nc3ccccc32)cc1,-4%
Fc1ccccc1-c1nc(-c2ccccc2)no1,0%
O=C(C1CCc2nnc(-c3cccc(C(F)(F)F)c3)n21)N1CCCCC1 (configuration not stated),-10%

Not all compounds are listed (hit frequency here may not be typical).
